Ba CapD inh: blocks the Bacillus anthracis CapD enzyme; purified CapD enzyme, fluorescence intensity read-out; stronger effect = lower value; some hits fall short of the stated cut; z-score (concentration not given with the values); 140,000 tested, 0.23% active; AID 492967;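 active = z-score under -4 in either of two replicates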;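 note: stock transfer was 100 nL into about 40 µL; score is relative to mean and spread of the plate; one replicate is shown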
AID504770: E. coli YBA685 growth inhibition, screen for V. cholerae RctB inhibitors. E. coli YBA685 rctB-dependent plasmid, OD600 growth, 3 h; stronger effect = lower value. z-score (concentration not given with the values). 130,000 tested, 0.27% active;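 active = z-score under -2 on both plates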;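 note: wells of about 30 µL received 100 nL stock; score is relative to mean and SD of the test wells; the first replicate is given; strong numbers were not always called active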
Numbers without * were called inactive; i = inactive; x = not tested or not shown.

no.	SMILES	Ba CapD inh	AID504770
1	CCOC(=O)c1ccccc1OCc1cc(C2Nc3ccccc3C(=O)N2c2cccc3ccccc23)ccc1OC (centres undefined)	23	x
2	CNC(=O)c1ccc(-c2nc(-c3cccc(C(F)(F)F)c3)cs2)cc1	19.5	x
3	CC(C)(C)OC(=O)N1CCCN(C(=O)c2ccc(Cl)cc2)CC1	0.775	1.1
4	CCn1cc(CCCC(=O)NCCc2ccc(Cl)cc2)c2ccccc21	-0.1	-0.1
5	Cc1ncc([N+](=O)[O-])n1CCOC(=O)N1CCc2c([nH]c3ccccc23)C1	0.73	x
6	CC(=O)Nc1ccc(OC(=O)COc2cccc(C)c2)cc1	0.17	-0.45
7	CCC(=O)n1c(=O)n(C(=O)CC)c2ccccc21	x	-0.9
8	Cc1cc(C)c2c(=O)[nH]c(SCCOc3ccccc3)nc2n1	x	2.15
9	Cc1cc(Br)ccc1OCCCN1CCN(C)CC1	-0.255	-1.45
10	N#Cc1cnc(SCC(=O)Nc2ccc(N3CCOCC3)cc2)nc1N	x	0.8
11	Cc1ncc(CO)c2c1OC(C)(C)OC2	-0.12	-0.4
12	COc1ccc(C(=O)On2c(-c3ccc(C(C)(C)C)cc3)nc3ccccc3c2=O)cc1Br	0.055	x
13	CCOC(=O)C1=C(C)N=c2s/c(=C/c3ccc(N(CC)CC)o3)c(=O)n2C1c1ccc(OC)cc1 (centres undefined)	-0.76	x
14	O=S(=O)(Nc1ccccc1OC(F)F)c1cccc2nsnc12	x	-0.8
15	COCc1c(C(=O)OCC(=O)Nc2cc(-c3ccccc3)nn2-c2ccccc2)oc2ccccc12	x	0.05
16	Cc1ccccc1CNCc1cccs1	x	-0.9
17	O=C(O)CNC(=O)c1cncc(O)c1	x	0.7
18	CCN(CC)CC(O)Cn1ccc2ccccc21 (centres undefined)	1.49	-0.35
19	Cc1ccc(C(=O)OCC(=O)C23CC4CC(CC(C4)C2)C3)c(O)c1	x	-0.5
20	CCOC(=O)c1cnc(SC)nc1Nc1ccc(C(F)(F)F)cc1	-0.32	x

Four entries from above, in transposed form.
#17 O=C(O)CNC(=O)c1cncc(O)c1
#16 Cc1ccccc1CNCc1cccs1
#19 Cc1ccc(C(=O)OCC(=O)C23CC4CC(CC(C4)C2)C3)c(O)c1
#20 CCOC(=O)c1cnc(SC)nc1Nc1ccc(C(F)(F)F)cc1
Compound | 17 | 16 | 19 | 20
Ba CapD inh | x | x | x | -0.32
AID504770 | 0.7 | -0.9 | -0.5 | x

(further entries)
no.	SMILES	Ba CapD inh	AID504770
21	COc1ccccc1C(=O)C1C(=O)NC2(C)CC1c1cc(Cl)ccc1O2 (centres undefined)	0.42	0.15
22	CC(C)N(C(C)C)S(=O)(=O)c1ccccc1	x	-0.5
23	CC(C)NC(=O)C1CCCN(S(C)(=O)=O)C1 (centres undefined)	-0.435	1.9
24	CC1CCCCN1c1nnc(NC(=O)c2cc(-c3ccc(Br)cc3)on2)s1 (centres undefined)	-0.15	0
25	C[C@H](NC(=O)Cc1cccc2ccccc12)C(=O)NC1CC1	x	-0.2
26	COc1ccc(CCN=Cc2ccccc2O)cc1OC	0.035	-0.55
27	COc1cccc(CN2COc3ccc4c(-c5ccccc5)cc(=O)oc4c3C2)c1	2.8	1.35
28	COc1cc(/C=C2\SC(=O)N(c3c(C)n(C)n(-c4ccccc4)c3=O)C2=O)ccc1O	-0.565	x
29	c1ccc(-c2nc3ccccc3nc2-c2ccccn2)nc1	-0.805	-0.4
30	Cc1cccc2sc(NNC(=O)c3ccc(S(=O)(=O)N4CCCC4)cc3)nc12	x	1.15
31	CC(=C1C(=O)c2ccccc2C1=O)N1CCN(CCO)CC1	x	1.7
32	CCCCN1C(=O)/C(=C2/C(=O)N(Cc3ccccc3)c3ccccc32)SC1=S	-0.73	-2.55
33	NNC(=O)c1cccnc1N	8.97	-1.25
34	O=C1NC(c2ccccc2)(c2ccccc2)C(=O)N1Cc1ncc(-c2ccccc2)o1	x	0
35	COC(=O)CC1C(=O)NCCN1C(=O)c1ccc(-c2ccccc2)cc1 (centres undefined)	x	1.3
36	CCC(CO)Nc1ncnc2sc(C)c(C)c12 (centres undefined)	x	-0.15
37	O=C(Cn1cccc1C(=O)c1ccccc1)NC1CC1	-0.19	-0.5
38	O=C(Nc1ccc(Cl)cc1)c1ccccc1	0.205	1.25
39	Cn1c(-c2ccccc2)c(C(=O)CNCc2ccco2)c2ccccc21	x	-0.95
40	CC(C)=CCCC(C)CC(=O)NNC(=O)c1ccc2nsnc2c1 (centres undefined)	0.505	x
41	CS(=O)(=O)n1nc(-c2ccco2)nc1SCc1ccccc1	0.625	-0.95
42	O=C(Nc1ccc(Cl)c(Cl)c1)Nc1ccnn1C1CCCCC1	x	-1.3
43	COC(=O)C1=C(C(=O)OC)SC2(S1)C(C(=O)OC)=C(C(=O)OC)SC1=C2c2ccccc2N(C(=O)Cc2ccccc2)C1(C)C	-0.62	x
44	S=c1nc(C2COc3ccccc3O2)[nH][nH]1 (centres undefined)	-0.38	-1.05
45	COc1ccc2c(c1)c1c3n2CC(O)CN=C3CCC1 (centres undefined)	-0.05	1.95
46	COC(=O)c1sc2ncn(Cc3ccc(C)cc3)c(=O)c2c1C	4.63	0.75
47	COC(=O)c1c(C)[nH]c(C(=O)CSc2nc(C)nc3sc4c(c23)CCC4)c1C	-0.025	x
48	Cc1ccc(-c2nc(CSCC(=O)Nc3cc(C)on3)c(C)o2)cc1	-1.02	1.9
49	O=C(CSc1nc2cc(C(=O)NCC3CCCO3)ccc2c(=O)n1Cc1ccco1)c1ccccc1 (centres undefined)	-1.18	x
50	CCOC(=O)CSc1nc2c(sc(=S)n2-c2ccccc2OCC)c2nc3ccccc3n12	-0.275	x
51	Cc1cccc(-n2ncc3c(Nc4c(C)n(C)n(-c5ccccc5)c4=O)ncnc32)c1	-1.3	x
52	OCCNc1ncnc2sccc12	-0.575	x
53	COc1cc(NC(=O)C2CC(=O)NC3=C2C(=O)CC(C)(C)C3)c(OC)cc1Cl (centres undefined)	0.19	0.1
54	Cc1oc2ncnc(NC3CCCC3)c2c1C(=O)O	-0.28	-0.45
55	COc1ccc(N2CCN(C(=O)CSc3nc4[nH]ncc4c(=O)n3-c3ccccc3OC)CC2)cc1	-1.27	x
56	CCS(=O)(=O)Nc1c(NC)c2ccccc2oc1=O	0.155	-1.15
57	CC(C(=O)O)N1C(=O)CSc2ncccc21 (centres undefined)	-0.425	-0.3
58	OC(Cn1cncn1)c1ccc(Cl)cc1Cl (centres undefined)	0.19	0
59	O=S(=O)(NCc1ccccc1)c1cccc(C(F)(F)F)c1	x	-0.2
60	Cc1nc2ccccc2n1-c1ccccc1	0.135	-1.05
61	Cc1ccc(OCC(O)CN2CCN(c3nc(-c4ccccc4)ns3)CC2)c([N+](=O)[O-])c1 (centres undefined)	-0.665	x
62	O=c1ccc(-c2ccccc2)n[nH]1	0.185	1.4
63	C/C(=N\NC(=O)N/N=C(\C)c1ccc([N+](=O)[O-])cc1)c1ccc([N+](=O)[O-])cc1	-0.135	x
64	CCCCn1c(SCC(=O)Nc2ccccc2C(=O)OC)nc2ccsc2c1=O	-0.065	-0.25
65	Cn1nc(C(F)(F)F)c(C(=O)Nc2ccc(F)cc2F)c1Cl	-0.78	2.35
66	Cc1ccc(-n2c(=O)oc3ccc(Cl)cc3c2=O)cc1	0.03	-0.35
67	CCCSc1nnc2c(n1)OC(c1ccc(N(C)C)cc1)Nc1ccccc1-2 (centres undefined)	0.12	-1.2
68	Cc1ccc2c(c1)c(=O)c1ccccc1n2CC(=O)Nc1cc(Oc2ccc(Cl)c(C)c2)cc([N+](=O)[O-])c1	-0.255	x
69	O=C(C1CCN(c2nccc(C(F)(F)F)n2)CC1)N1C=CC(C(F)(F)F)=NCC1	2.4	-0.15
70	CCCNS(=O)(=O)c1ccc(CCC(=O)NCC2CCCO2)cc1 (centres undefined)	x	-0.15

Carrying on:
no.	SMILES	Ba CapD inh	AID504770
71	CC1Cc2ccccc2N1C(=O)CCN1C(=O)C2C3C=CC(C3)C2C1=O (centres undefined)	-0.83	x
72	COc1ccc(OC)c(NC(=S)NCc2ccccc2)c1	x	0.15
73	Cc1c2cnc3nn(-c4ccccc4)c(=O)c-3cc2c(C)n1C	x	0.8
74	CC(C)n1c(Nc2ccccc2)nc2ccccc21	0.425	-0.45
75	CCCc1ccc(N2C(=O)CCC2=O)cc1	-0.365	1.15
76	Cc1ccc2c(c1)C(O)(CC(=O)c1ccc(N(C)C)cc1)C(=O)N2 (centres undefined)	0.65	x
77	Cc1c(C(=O)N2CCCC2)oc2ccc3c(c12)C(=O)CC(C)(C)O3	6.86	0.5
78	Cc1ccccc1NC(=O)CSc1nc2c(c(-c3ccco3)c1C#N)CCCC2	0.935	x
79	COc1ccc(/C=C2\COc3ccccc3C2=O)cc1	-2.99	-0.95
80	O=C1CC(S(=O)(=O)c2ccccc2)C(=O)N1c1cc(Cl)cc(Cl)c1 (centres undefined)	0.975	-0.7

6 entries from above, with values under each structure.
Order of results – Ba CapD inh	AID504770
75. CCCc1ccc(N2C(=O)CCC2=O)cc1
    -0.365	1.15
79. COc1ccc(/C=C2\COc3ccccc3C2=O)cc1
    -2.99	-0.95
77. Cc1c(C(=O)N2CCCC2)oc2ccc3c(c12)C(=O)CC(C)(C)O3
    6.86	0.5
74. CC(C)n1c(Nc2ccccc2)nc2ccccc21
    0.425	-0.45
71. CC1Cc2ccccc2N1C(=O)CCN1C(=O)C2C3C=CC(C3)C2C1=O (centres undefined)
    -0.83	x
73. Cc1c2cnc3nn(-c4ccccc4)c(=O)c-3cc2c(C)n1C
    x	0.8

(further entries)
no.	SMILES	Ba CapD inh	AID504770
81	COCCn1c(SCC(=O)c2ccc(CNC(C)=O)o2)nc2ccccc2c1=O	x	-0.15
82	CC(=O)Nc1ccc(SCc2ncc(-c3ccccc3)o2)cc1	x	-0.75
83	COc1cc2c(C(=O)NCc3ccc4c(c3)OCO4)cn(CC(C)C)c(=O)c2cc1OC	1.25	-0.4
84	COC(=O)CCC(=O)c1ccc(Br)s1	i	0.95
85	Cc1nc2c(o1)NC(N)=C(C#N)C21CCN(C)CC1	1.36	0.75
86	COc1ccc(-n2nc(C(=O)NC3CCCC(C)C3C)c3c4ccccc4n(C)c3c2=O)cc1 (centres undefined)	-1.94	-0.2
87	COc1cccc(OC)c1C(=O)OCc1ccccc1C#N	x	0.75
88	CCOC(=O)c1noc2ncnc(N3CCc4ccccc43)c12	-0.195	0.1
89	CN(C)S(=O)(=O)c1cc(C(=O)NCC2CCCO2)c(Cl)cc1Cl (centres undefined)	1.21	-0.7
90	Cc1occc1C(=O)Nc1ccc(N(C)C)cc1	-0.535	-0.15
91	N#Cc1ccc(COC(=O)c2ccc(-n3cnc4ccccc43)cc2)cc1	x	-0.25
92	CCOC(=O)C1CCCN(C(=O)c2ccccc2OCC)C1 (centres undefined)	-0.15	-0.35
93	COc1ccc(-c2csc(=Nc3ccc(OC(F)(F)Cl)cc3)n2CCc2ccc(S(N)(=O)=O)cc2)cc1F	0.255	x
94	COc1cccc(NC(=O)Cn2cc(C(=O)c3ccccc3)c(=O)c3cc(OC)ccc32)c1	-0.205	-1.1
95	O=C(CSc1ncnc2c1oc1ccccc12)Nc1ccc(F)cc1	x	0.7
96	COc1ccc(-c2noc(N3CCC(C(=O)N(C)c4ccccc4C)CC3)n2)cc1	-0.16	0.75
97	O=C(Cc1cc(=O)[nH][nH]1)N/N=C/C=C/c1ccccc1	-1.46	-0.85
98	CCS(=O)CCSc1nc(-c2cccs2)cc(C(F)(F)F)c1C#N (centres undefined)	32.2	-0.7
99	Cc1cc(NC(=O)CC(=O)Nc2ccc3nc4n(c(=O)c3c2)CCCCC4)no1	1.27	-1.25
100	CCc1ccccc1NC(=O)CCNS(=O)(=O)c1ccc2c(c1)CC(C)N2C(C)=O (centres undefined)	-0.265	-0.85
101	COc1ccc(OC)c(C(=O)Cn2cnc3sccc3c2=O)c1	x	0.15
102	O=C(Nc1nc2ccccc2c(=O)s1)c1ccc(Cl)cc1	-1.49	0.45
103	CCc1ccc(C2CC(c3ccccc3)n3ncnc3N2)cc1 (centres undefined)	0.325	0.5
104	Cc1c(O)c(-c2ccccc2)c(=O)n(-c2ccccn2)c1-c1ccccc1	0.615	1
105	COc1cc(CN(C)C(=O)CN2C(=O)C3C4C=CC(C4)C3C2=O)ccc1OC(F)F (centres undefined)	x	0.1
106	COc1ccccc1NC(=O)c1nn(-c2ccc(Cl)cc2)ccc1=O	-0.47	x
107	O=c1[nH]c2ccccc2nc1/C=C(\O)c1ccco1	1.03	0.15
108	COc1ccc(OCC(=O)Nc2cccc(NC(=O)c3ccco3)c2)cc1	-0.175	-0.5
109	COc1ccc(-c2nc(C(N)=O)c3[nH]c(=O)n(CC4CCCO4)c3n2)cc1O (centres undefined)	-1.21	0.7
110	O=C(Nc1ccncc1)c1cccc(S(=O)(=O)N2CCCC2)c1	x	-3.1
111	CCCCn1c(CNC(=O)c2ccc(OC)cc2)nnc1SCC(=O)Nc1sc2c(c1C(=O)OCC)CCC2	-0.075	x
112	CCOC(=O)c1noc2nc(C)nc(NCCN3CCOCC3)c12	-0.695	-0.55
113	CCC(C)OC(=O)C1CC=CCC1C(=O)Nc1ccc(C)cc1 (centres undefined)	-0.1	1
114	Cc1csc(C(C#N)C(=O)CSc2nc3cc(Cl)ccc3s2)n1 (centres undefined)	x	-0.9
115	NNc1nc2cc3c(cc2s1)OCCO3	-0.56	1.95
116	COc1cccc(CN(C)C(=O)c2cc3ccccc3cc2OCc2c(C)noc2C)c1OC	x	0.15
117	COc1ccc(CC(NC(C)=O)C(=O)NC2CCN(c3nc(OC)nc(OC)n3)CC2)cc1 (centres undefined)	x	-0.6
118	O=C(CCc1c[nH]c2ccccc12)N1CCn2c(nc3ccccc32)C1	1.12	-0.8

Bioassay records deposited in PubChem by ICCB-Longwood Screening Facility, Harvard Medical School.
